Menin-MLL FL inh: qHTS Assay for Inhibitors Targeting the Menin-MLL Interaction in MLL Related Leukemias: Competition With Fluorescein Labeled MLL-derived Peptide; Fluorescence polarization, fluorescein-MLL peptide displacement from menin; FP activity change, % at 61.4 µM; 290,000 tested, under 10 active; inconclusive = falling polarisation curve, or a change in total fluorescence; inactive = total fluorescence flat and polarisation flat or rising; no compound was filed as active; the % refers to the polarisation; negative = inhibition;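 note: % of control where 0% means no effect; inhibitors lower the polarisation; unlabelled MLL peptide was the positive control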
TRPML1 inh: qHTS for Inhibitors of the Human Mucolipin Transient Receptor Potential 1 (TRPML1); Mucolipin-1 (Homo sapiens), Q9GZU1; hit rate 0.02% among 390,000; activity change, negative = inhibition, % (test concentration not listed); TRPML1-inducible cells, Ca2+ dye fluorescence, FDSS; stronger effect = lower value; inhibition of EC80 agonist-evoked calcium signal; AID 624415, 2012; in the data active means activity change below about -50%; inconclusive means about -30% to -50%; inactive means above about -30%;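 note: stimulus is agonist 54-4 at its EC80 concentration; % is set by controls: 0 for no effect and ±100 for the full control effect; compound concentration not given in the record; the text of the record puts the active cut at -80%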
Target sequence (Q9GZU1 whole entry, looked up): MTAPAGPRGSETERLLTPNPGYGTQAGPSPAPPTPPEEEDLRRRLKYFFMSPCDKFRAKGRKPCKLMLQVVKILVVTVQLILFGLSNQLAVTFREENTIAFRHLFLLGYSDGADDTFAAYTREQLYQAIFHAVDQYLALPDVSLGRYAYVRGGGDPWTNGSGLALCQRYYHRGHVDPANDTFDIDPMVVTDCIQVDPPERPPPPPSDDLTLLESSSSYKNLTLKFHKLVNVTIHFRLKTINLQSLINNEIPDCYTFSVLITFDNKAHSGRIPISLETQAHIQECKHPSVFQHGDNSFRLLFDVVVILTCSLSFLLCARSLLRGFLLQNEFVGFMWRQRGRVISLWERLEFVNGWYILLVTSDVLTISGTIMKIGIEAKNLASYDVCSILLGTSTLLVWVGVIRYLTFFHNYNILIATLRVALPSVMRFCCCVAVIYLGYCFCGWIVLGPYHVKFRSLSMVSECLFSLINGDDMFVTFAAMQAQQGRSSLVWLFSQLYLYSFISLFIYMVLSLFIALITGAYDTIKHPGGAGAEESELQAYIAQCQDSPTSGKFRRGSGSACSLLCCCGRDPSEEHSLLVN
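TRPML1-DL cells, Tet-induced overnight (~16 h, 37 °C) at 1,500 cells/well, were loaded with Ca8 no-wash dye plus quencher for 45-90 min at room temperature. Compounds were pinned during FDSS kinetic reading; agonist 54-4 at EC80 (4 uM final) then added.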
TRPML1 agonist: qHTS for Agonists of the Human Mucolipin Transient Receptor Potential 1 (TRPML1); Mucolipin-1 (Homo sapiens), Q9GZU1; TRPML1-expressing cells, Ca2+ dye fluorescence, FDSS; host cell line not named in the record; reference of the full effect not given here; activation, % (concentration not given with the values); hit rate 0.12% among 410,000; AID 624414, 2012; in the data active = activation above about 50%; inconclusive = about 30% to 50%; inactive = below about 30%; note: 0% is about no effect; the text of the record puts the active cut at 80%
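Calcium fluorescence on an FDSS kinetic reader gave the read-out. Tet-induced TRPML1-DL cells were plated overnight, dye-loaded (Ca8 with quencher, 45-90 min, room temperature, dark), then read 110 s after compound addition, and again 110 s after 4uM final 54-4 (EC80).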
gsp agonist: qHTS for Agonist of gsp, the Etiologic Mutation Responsible for Fibrous Dysplasia/McCune-Albright Syndrome: qHTS. gsp mutant cells, cAMP HTRF, 30 min; control for the full effect not named in the record. Potency, µM (titrated, usually from 76.9 µM), inactives show top-dose activation (cAMP increase), actives largely listed as activators. hit rate 0.13% among 340,000. AID 624287, 2012; active = well fitted activation curve with a large enough effect; inconclusive = small, poorly fitted or top-dose-only effect, or another doubt; inactive = no such curve, though single readings can be large or run the other way; cell line not stated here;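 note: phosphodiesterase inhibitor Ro 20-1724 added with compounds to block cAMP breakdown; potency is the fitted concentration of half-maximal effect; nearly all actives have a fitted effect of over 60% in size; about a fifth of the inactives were tested at one dose only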
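Cells in DMEM/10% FBS with G418 were pretreated with compounds in DMSO plus […] (300 uM stock) for 30 min at 37C. cAMP was measured by HTRF (cAMP-d2 plus anti-cAMP antibody-K) after 30 min at room temperature.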
gsp antagonist: qHTS for Antagonists of gsp, the Etiologic Mutation Responsible for Fibrous Dysplasia/McCune-Albright Syndrome: qHTS; hit rate 0.4% among 340,000; Potency, µM (top dose mostly 76.9 µM), without a hit: at the top dose activity change, negative = inhibition, actives largely listed as inhibitors; gsp-mutant cells, cAMP HTRF, 30 min; control for the full effect not named in the record; active = falling curve of any shape with a large fitted effect; inconclusive = falling curve, mostly with a smaller effect; inactive = flat or rising curve; cell line not stated here;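 note: intracellular cAMP measured with PDE inhibitor Ro 20-1724 present during compound exposure; potency is the fitted concentration of half-maximal effect; % is set by controls: 0 for no effect and ±100 for the full control effect; nearly all actives have a fitted effect of over 65% in size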
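HTRF cAMP measurement after 30 min RT detection following 30 min, 37C compound treatment alongside […] (added as 300 uM solution) in G418-selected cells seeded at 2000/well and grown 16–24 h.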
ClpP mod: qHTS Assay for Activators of ClpP; Potency, µM (titrated, usually from 57.5 µM), for the others: at the top dose activity change, negative = active; purified B. subtilis ClpP, FRET peptide cleavage, 20 min; hit rate 1.9% among 340,000; active = well fitted falling curve with a large enough effect; inconclusive = small, poorly fitted or top-dose-only effect; inactive = no such curve, though single readings can be large or run the other way; note: potency is the fitted concentration of half-maximal effect; the source files actives as falling curves though it sought activators and does not explain the sign; nearly all actives have a fitted effect of over 65% in size; many hits overshoot -100%
Target sequence (P80244 whole entry, looked up): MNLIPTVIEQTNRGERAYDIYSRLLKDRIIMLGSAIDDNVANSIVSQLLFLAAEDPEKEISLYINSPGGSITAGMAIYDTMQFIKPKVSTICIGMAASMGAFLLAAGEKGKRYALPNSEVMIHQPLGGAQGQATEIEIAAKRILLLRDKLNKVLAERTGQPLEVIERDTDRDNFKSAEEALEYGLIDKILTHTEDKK
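FRET quenching reversal measured ClpP activation: 10 microg/mL B. subtilis ClpP at pH 8 with the FRET-FV decapeptide, read at 430 nm after 320 nm excitation. The 20-min minus 0-min signal was scaled between DMSO/no-enzyme wells and ADEP (5.8 microM final).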
* hit, by the source's call; ? = inconclusive; nt = not tested or not shown; & = joins results of further samples; [ ] = another dose, or the depositor's remark.

SMILES	Menin-MLL FL inh	TRPML1 inh	TRPML1 agonist	gsp agonist	gsp antagonist	ClpP mod
CC1(C)CC(=O)N(CC(=O)N2CCN(c3ncccn3)CC2)c2ccccc2S1(=O)=O	0.1	10.6	2.5	25.1%	7.9%	-8.5%
CC(=O)c1nn(-c2ccc(C)cc2)cc1C(=O)c1cccc(Br)c1	nt	29.9	0.6	13.1%[15.4 µM]	-5.8%	0.3%
COC(=O)CN(c1ccc(F)cc1)S(=O)(=O)c1ccccc1	2.8	-7.1	0.0	-40.8%[inhibitor]	-8.1%	-1.7%
CCOc1ccc(C(=O)NC2CCN(C(=O)N3CCCC3)CC2)cc1	-0.6	3.0	-1.5	-34.5%	-13.4%	0.5%
Cc1cc(C)c2c(C)[nH]nc2n1	2.6	15.2	0.1	9.7%[15.4 µM]	3.9%	-2.7%
COc1ccc(N2C(=O)CC(NCc3cccc(F)c3)C2=O)cc1 (stereo not drawn)	-0.8	3.2	-0.4	-3.2%	3.2%	-1.1%
COc1cccc(NC2c3ccccc3C(=O)N2Cc2ccco2)c1 (stereo not drawn)	8.3	12.3	0.7	?	-16.9%	0.7%
Cc1cccn2c(=O)c(C(=O)NCCCN3CCCCC3C)c(O)nc12 (stereo not drawn)	4.5	1.7&41.1	-0.4&0.2	23.5%	11.6%	3.9%&4.6%
CC(C)c1ccc(NC(=O)N(CCc2nc3ccccc3[nH]2)C2CCCC2)cc1	1.1	11.9	0.2	-0.2%	?	-4.4%
Cc1ccc(NNC(=O)CCc2ccccc2)c(C)c1	1.2	-5.9	0.5	3.5%[15.4 µM]	-2.4%	nt
Cc1ccc(S(=O)(=O)NC(=O)COc2ccc([N+](=O)[O-])cc2)cc1	-3.7	-2.5	1.0	14.2%[15.4 µM]	3.0%	-1.9%
Fc1ccc(-c2[nH]ncc2CN(CC2CCC2)CC2CCCO2)c(F)c1 (stereo not drawn)	4.4	3.2	-0.3	?	3.8%	nt
CCOC(=O)C1=NN(c2ccc(C)cc2)C2(S1)SC(C(C)=O)=C(C)N2c1ccccc1 (stereo not drawn)	2.4	62.4	1.6	2.5%	-18.1%	-1.4%
O=C(O)c1nn(CC(=O)N(C2CCCCC2)C2CCCCC2)c(=O)c2ccccc12	0.6	8.4	2.3	?	-17.8%	nt
CC1CCN(S(=O)(=O)c2ccc(C(=O)NC3CCS(=O)(=O)C3)cc2)CC1 (stereo not drawn)	nt	14.9	-0.2	-7.5%[15.4 µM]	3.9%	nt
Cc1ccc2nc(SCC(=O)Nc3ccc(Br)cc3)nc(=O)n2c1	nt	-20.8	1.4	?	5.3%	-3.7%
CC(=O)c1cccc(NC(=O)Nc2ccccc2)c1	-0.6	6.0	0.4	3.8%	1.6%	nt
COc1ccccc1C/C(N)=N/OC(=O)c1cccc([N+](=O)[O-])c1C	5.9	19.0	2.3	0.9%	6.6%	-29.7%
Cn1cc(S(=O)(=O)NC2CCCC2)c(=O)n(C)c1=O	nt	7.6	0.3	14.5%[15.4 µM]	-1.0%	-17.3%
O=C(Nc1cccc(S(=O)(=O)N2CCOCC2)c1)c1cnccn1	-1.4	-3.8	0.8	23.4%	9.7%	1.8%
CCS(=O)(=O)N1CCN(c2ccc([N+](=O)[O-])c(NCC3CCCO3)c2)CC1 (stereo not drawn)	0.4	-13.0	-0.8	6.9%[15.4 µM]	-11.0%	-1.6%
O=c1cc([O-])[n+]2c3n1CCCN3CCC2	1.9	-20.5	0.4	?	10.9%	-2.6%
CC1=CC(=O)CC(C)(C)C1(O)/C=C/C(C)=C/C(=O)O (stereo not drawn)	0.0&-4.1	-6.2	-0.5	-1.8%	15.5%	2.2%
CC(=O)N1CCN(S(=O)(=O)c2cccc(C(=O)Nc3ccccc3N3CCCC3)c2)CC1	nt	7.9	0.2	-4.4%[15.4 µM]	4.6%	-2.4%
O=[N+]([O-])c1ccc(N2CCCCC2)cc1SCCO	-2.0	10.3	-0.2	-9.5%	-17.1%	1.9%

SMILES	Menin-MLL FL inh	TRPML1 inh	TRPML1 agonist	gsp agonist	gsp antagonist	ClpP mod
Cc1ccc(S/C(=N\S(=O)(=O)c2ccc(Cl)cc2)c2ccccc2)cc1	-0.2	1.7	0.3	0.3%	1.3%	1.4%
COc1ccc(-c2nnc(SCc3csc(N)n3)n2C)cc1	3.6	30.0	0.2	2.4%	7.1%	-0.7%
Cc1cc(C)cc(OCC(=O)NC2CCCc3ccccc32)c1 (stereo not drawn)	1.3	6.7	1.6	1.9%[15.4 µM]	-13.7%	-1.1%
Cc1[nH]c2ccccc2c1C(=O)C(C)OC(=O)C1CCC1 (stereo not drawn)	nt	9.1	0.5	9.9%[15.4 µM]	2.5%	-1.4%
CC(=O)/C(N=Nc1ccc2c(c1)OCO2)=C(\C)O	21.1	10.4	-0.5	4.7%	9.4%	0.3%
COCCCN(C(C)=O)c1nc(-c2ccccc2)cs1	-1.9	-2.5	-0.3	-13.9%	-20.3%	2.2%
CCOc1cc(CNCCSc2nnnn2-c2ccccc2)ccc1OC	nt	-4.6	-0.8	nt	nt	4.1%
CCN1C(=O)/C(=C2/SC(C)=C(C)N2CC)SC1=S	?	-0.9	4.0	-9.1%	-6.0%	-1.7%
CC(C)(C)c1cc(C(=O)N2CCN(c3ncccn3)CC2)ccn1	-1.0	30.8	-0.4	-6.8%	-8.3%	-17.3%
O=C1N(CCCCN2C(=O)C3(OCCO3)c3ccccc32)c2ccccc2C12OCCO2	1.7	-0.5	1.8	-35.9%[inhibitor]	?	-0.2%
COc1ccc(CCn2c(N)c(S(=O)(=O)c3cccs3)c3nc4ccccc4nc32)cc1OC	-6.8	8.8	0.3	26.3%	-12.7%	-16.2%
COc1ccc(Cn2c(-c3ccco3)nc3c(c(=O)c4ccccc4n3C)c2=O)cc1	13.8	-8.9	-1.1	20.2%	-11.5%	-2.7%
Cc1ccccc1Nc1c(-c2ccccc2)nc2ncccn12	3.7	-4.5	-0.8	18.7%[15.4 µM]	2.5%	nt
CCOc1ncccc1C(=O)NCCCSc1ccccc1	5.7	1.9	0.8	2.8%[15.4 µM]	1.9%	-6.1%
COc1cccc(C(c2sc3nc(-c4ccco4)nn3c2O)N2CCN(c3ccccc3F)CC2)c1 (stereo not drawn)	nt	-25.2	1.4	nt	nt	0.8%
N#CC1=C(N)C2=C(N3CCCCC3)CCCC2C1(C#N)C#N (stereo not drawn)	?	13.5	1.7	-14.6%	-20.2%	0.5%
O=C(O)c1c2c(nc3ccccc13)/C(=C/c1ccccc1[N+](=O)[O-])CCC2	-2.4	19.3	0.7	0.5%	-1.1%	nt
COc1cc(C2/C(=C(\O)c3ccc4c(c3)OCCO4)C(=O)C(=O)N2Cc2ccco2)cc(OC)c1OC (stereo not drawn)	nt	-1.9	-0.3	?	17.6%	0.8%
COCC(=O)Nc1nnc(CCc2ccccc2)s1	-3.6	13.1	0.0	9.2%	-0.5%	-2.7%
CN(C)CCSc1nnc2[nH]c3ccccc3c2n1	0.0	-12.7	0.6	10.0%	6.0%	-5.6%
CN(C)S(=O)(=O)Oc1cccc(C(=O)Nc2ccc(Cl)c(Cl)c2)c1	5.3	14.9	3.8	3.9%	?	-6.4%
CCn1c(SCC(=O)Nc2nnc(C)s2)nnc1C(C)NC(=O)c1ccccc1 (stereo not drawn)	-0.7	10.8	0.7	-28.9%[15.4 µM]	4.9%	nt
COc1ccc(C(=O)N2CCC(c3ccncc3)CC2)cc1OC	nt	-22.9	-0.1	nt	nt	-1.7%
O=C(COc1ccc(Br)cc1F)NC1CCN(Cc2ccccc2)CC1	-1.8	6.3	-0.9	9.2%	2.7%	-2.8%
CCOC(=O)c1ccc(NC(=O)CCc2nc(-c3ccccc3Cl)no2)cc1	0.2	15.7	2.4	7.6%	?	-2.0%

SMILES	Menin-MLL FL inh	TRPML1 inh	TRPML1 agonist	gsp agonist	gsp antagonist	ClpP mod
CCC(C)N(C(=O)COC(=O)c1ccccc1SCC(=O)N1CCCC1)C1CCS(=O)(=O)C1 (stereo not drawn)	nt	1.2	-0.6	-12.3%[15.4 µM]	8.7%	-3.5%
CCOC(=O)c1ccc(NC(=O)C(=O)NCc2ccc(/C=C(/C#N)C(=O)NCCOC)o2)cc1	?	20.0	-0.7	17.1%[15.4 µM]	-3.0%	nt
Cc1ccc(S(=O)(=O)O/N=C2/CCCc3occc32)cc1	1.0	5.6	-0.1	11.8%	8.1%	2.0%
O=c1[nH]c2cccnc2n1Cc1ccco1	-0.6	2.2	0.3	-53.3%[inhibitor]	8.7%	-0.8%
Cc1ccccc1-c1cc2nc(C)c(Cl)c(=O)n2[nH]1	nt	-7.6	2.0	15.0%	-23.6%	nt
Cc1c(N)cccc1Cl	0.1	-2.6	-0.1	nt	8.2%	-0.2%
Cc1ccc(C(=O)N/C(=C\c2ccco2)C(=O)NC2CCS(=O)(=O)C2)cc1 (stereo not drawn)	-6.8	-0.3	0.2	-52.9%[inhibitor]	9.1%	nt
CC(Sc1n[nH]c(N)n1)C(=O)Nc1ccccc1-c1ccccc1 (stereo not drawn)	-3.1	18.5	-0.3	8.9%	7.3%	0.4%
CCC(C)C(NC(=O)c1ccccc1NC(=O)c1ccco1)C(=O)NNC(=O)c1ccc(OC)cc1 (stereo not drawn)	10.1	-9.2	3.8	34.5%	-8.8%	-6.6%
Nc1n[nH]c(-c2ccc(F)cc2)n1	0.6	-3.6	-1.0	-1.0%	7.0%	-4.4%
O=C(Cn1ccccc1=O)NCc1ccc(F)cc1	-3.5	13.9	-0.6	4.2%[15.4 µM]	7.5%	nt
CCOC(=O)COC(=O)c1ccc(O)cc1	4.4	2.2	0.0	-29.3%	7.0%	-2.3%

Filtered by structure: those above containing a cyano group.
SMILES	Menin-MLL FL inh	TRPML1 inh	TRPML1 agonist	gsp agonist	gsp antagonist	ClpP mod
N#CC1=C(N)C2=C(N3CCCCC3)CCCC2C1(C#N)C#N (stereo not drawn)	?	13.5	1.7	-14.6%	-20.2%	0.5%
CCOC(=O)c1ccc(NC(=O)C(=O)NCc2ccc(/C=C(/C#N)C(=O)NCCOC)o2)cc1	?	20.0	-0.7	17.1%[15.4 µM]	-3.0%	nt

Assay outcomes deposited in PubChem by National Center for Advancing Translational Sciences (NCATS).
